Bioassay records from PubChem.
Menin MLL FP FL = displaces fluorescein MLL peptide from human menin; Fluorescence polarization, fluorescein-MLL peptide displacement from menin; FP activity change, % at 61.4 µM; 290,000 tested, under 10 active; inconclusive = falling polarisation curve, or a change in total fluorescence; inactive = total fluorescence flat and polarisation flat or rising; no compound was filed as active; the % refers to the polarisation; negative = inhibition;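 further: % of control where 0% means no effect; inhibitors lower the polarisation; unlabelled MLL peptide was the positive control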
PINK1 expr mod = modulators of PINK1 expression; PINK1 immunofluorescence, high-content cytometry, 24 h; Potency, µM (doses to about 76.6 µM), for the others: top-dose activation (PINK1 increase), usual class: activators; 0.2% of 410,000 active; AID 624263; active = well fitted activation curve with a large enough effect; inconclusive = small, poorly fitted or top-dose-only effect; inactive = flat fitted curve, though single readings scatter; cell line not stated here;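 further: potency means the concentration at half of the fitted maximal effect; % of control where 0% means no effect; nearly all actives have a fitted effect of over 65% in size; a mitochondrial uncoupler was the plate control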
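A stable cell line was treated with compounds at 5 concentrations for 24 hours, with CCCP as control. PINK1 levels and mitochondrial localization were measured by immunofluorescence with mitochondrial, cell and nuclear markers after fixation, read by laser-scanning cytometry.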
TRPV1 potentiator = enhances activation of the human vanilloid receptor TRPV1; 0.02% of 320,000 active; TRPV1-expressing cells, Fluo-8 calcium influx, capsaicin EC20 potentiation; host cell line not named in the record; control for the full effect not named in the record; potentiation, % at 8.33 µM; Q8NER1; active means potentiation above 80%; inconclusive means 30% to 80%; inactive means below 30%; further: 0% is about no effect
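Cells expressing TRPV1 were dye-loaded with Fluo-8 and read kinetically: 10 s baseline, 3 min after compound (agonist portion), then 2 min after EC20 capsaicin (allosteric enhancer portion). Calcium-bound dye fluorescence at 480/520 nm.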
Sfp inh = Sfp phosphopantetheinyl transferase inhibition. Biochemical Sfp PPTase activity, qHTS. Q9F4F7. 3.5% of 310,000 active. Potency, µM, for the others: max response, negative = inhibition, most hits filed as inhibitors; active means well fitted inhibition curve with a large enough effect; inconclusive means small, poorly fitted or top-dose-only effect, or another doubt; inactive means no such curve, though single readings can be large or run the other way;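 further: the enzyme is Sfp with the accession as filed and its product quenches rhodamine fluorescence; potency means the concentration at half of the fitted maximal effect; 0% = enzyme reaction without inhibitor and -100% = no enzyme wells; top concentration of the series not given in the record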
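Compounds were incubated with enzyme (final 15 nM) for 15 min at room temperature before substrate addition started the reaction. Fluorescence at 525 nm excitation, 598 nm emission was recorded immediately and after 30 minutes.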
TRPML1 blocker = inhibitors of human TRPML1 channel; Q9GZU1; TRPML1-inducible cells, Ca2+ dye fluorescence, FDSS; stronger effect = lower value; inhibition of EC80 agonist-evoked calcium signal; activity change, negative = inhibition, % (no concentration beside the values); 0.02% of 390,000 active; in the data active means activity change below about -50%; inconclusive means about -30% to -50%; inactive means above about -30%;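 further: stimulus is agonist 54-4 at its EC80 concentration; on the % scale 0 is the no-effect control and ±100 the full control effect; compound concentration not given in the record; the text of the record puts the active cut at -80%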
Target sequence (Q9GZU1 whole entry, looked up): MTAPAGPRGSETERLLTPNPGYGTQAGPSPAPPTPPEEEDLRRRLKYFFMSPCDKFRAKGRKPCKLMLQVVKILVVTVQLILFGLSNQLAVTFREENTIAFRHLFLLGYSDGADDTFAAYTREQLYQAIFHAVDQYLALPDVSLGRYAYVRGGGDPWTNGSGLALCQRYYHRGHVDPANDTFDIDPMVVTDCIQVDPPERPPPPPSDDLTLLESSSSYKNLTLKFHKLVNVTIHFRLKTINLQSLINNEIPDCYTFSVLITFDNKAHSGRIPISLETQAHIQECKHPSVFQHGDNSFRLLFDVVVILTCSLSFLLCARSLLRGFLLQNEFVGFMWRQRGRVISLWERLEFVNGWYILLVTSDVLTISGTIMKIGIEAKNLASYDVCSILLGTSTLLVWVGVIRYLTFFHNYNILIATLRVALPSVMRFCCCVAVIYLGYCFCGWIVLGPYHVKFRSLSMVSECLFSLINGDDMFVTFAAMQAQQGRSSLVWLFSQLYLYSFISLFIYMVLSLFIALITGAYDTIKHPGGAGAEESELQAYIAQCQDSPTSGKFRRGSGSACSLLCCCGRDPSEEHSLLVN
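Calcium fluorescence in TRPML1-DL cells induced overnight with Tet: a 110 s read after compound pin addition, then a 110 s antagonist read after challenge with 54-4 at 4 uM final (EC80).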
ClpP mod = qHTS Assay for Activators of ClpP. Potency, µM (highest dose often 57.5 µM), without a hit: at the highest dose activity change, negative = active. 1.9% of 340,000 active. ATP-dependent Clp protease proteolytic subunit (Bacillus subtilis (strain 168)), P80244. purified B. subtilis ClpP, FRET peptide cleavage, 20 min; active = well fitted falling curve with a large enough effect; inconclusive = small, poorly fitted or top-dose-only effect; inactive = no such curve, though single readings can be large or run the other way; further: potency means the concentration at half of the fitted maximal effect; the source files actives as falling curves though it sought activators and does not explain the sign; nearly all actives have a fitted effect of over 65% in size; many hits overshoot -100%
Target sequence (P80244 whole entry, looked up): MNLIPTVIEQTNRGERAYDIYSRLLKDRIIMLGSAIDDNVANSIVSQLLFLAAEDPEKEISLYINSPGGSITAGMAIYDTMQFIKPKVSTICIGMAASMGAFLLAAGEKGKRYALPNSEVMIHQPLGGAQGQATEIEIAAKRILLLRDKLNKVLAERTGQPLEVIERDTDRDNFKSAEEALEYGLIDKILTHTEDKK
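Purified B. subtilis ClpP, 10 microg/mL final in Tris/HCl pH8 with KCl, BSA, glycerol and Tween-20, cleaved an Abz/nitrotyrosine-quenched decapeptide. Fluorescence (ex 320, em 430) was read at 0 and 20 min at room temperature. Delta was normalized to 5.8 microM ADEP and DMSO/no-enzyme controls.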
TRPML1 ag = agonists of human TRPML1 channel. TRPML1-expressing cells, Ca2+ dye fluorescence, FDSS; host cell line not named in the record; reference of the full effect not given here. activation, % (concentration not given with the values). 0.12% of 410,000 active; in the data active = activation above about 50%; inconclusive = about 30% to 50%; inactive = below about 30%; further: 0% is about no effect; the text of the record puts the active cut at 80%
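Kinetic FDSS Ca2+ read in Tet-induced TRPML1-DL cells (ABD Ca8 dye plus quencher, 45-90 min RT loading): baseline, then compound, then 110 s agonist window; EC80 agonist 54-4 at 4uM final added afterwards for a 110 s antagonist window.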
An asterisk follows results filed as active.

What do the screens show for `CCCn1nc(C(=O)N2CCN(S(=O)(=O)c3ccc(C)c(C)c3)CC2)c2ccccc2c1=O`?
PINK1 expr mod: -2.2%; TRPV1 potentiator: 5; TRPML1 blocker: 6; ClpP mod: -0.6%; TRPML1 ag: 3.0

How did COc1ccc(CCC(=O)NNC(=O)c2ccc(OC)cc2)cc1 do in these assays?
Menin MLL FP FL: -6.5; PINK1 expr mod: 0.1%; TRPV1 potentiator: -19; Sfp inh: -1%; TRPML1 blocker: inconclusive; TRPML1 ag: 0.3

How did CCC(=O)Nc1ccc2c(c1)nc(CN1CCN(C(C)=O)CC1)n2C do in these assays?
Menin MLL FP FL: 0.1; PINK1 expr mod: -1.7%; TRPV1 potentiator: 8; Sfp inh: 0%; TRPML1 blocker: 16; ClpP mod: -1.1%; TRPML1 ag: 1.6

How did COc1ccc(-c2[nH]ncc2CN(C)CC2CCCCO2)cc1F (stereo not drawn) do in these assays?
Menin MLL FP FL: 5.0; PINK1 expr mod: 0.3%; TRPV1 potentiator: -5; Sfp inh: 19%; TRPML1 blocker: -11; ClpP mod: -3.9%; TRPML1 ag: 0.6

How did CCOC(=O)C1CCCN(C(=O)CCCn2nc(C)n3c(cc4sccc43)c2=O)C1 (stereo not drawn) do in these assays?
Menin MLL FP FL: 5.4; PINK1 expr mod: -0.6%; TRPV1 potentiator: 5; Sfp inh: 17%; TRPML1 blocker: 7; ClpP mod: -4.5%; TRPML1 ag: -0.1

What do the screens show for `CN1CCN(/N=C/c2ccc(OCc3ccccc3)cc2)CC1`?
Menin MLL FP FL: 2.9; PINK1 expr mod: 1.3%; TRPV1 potentiator: 6; Sfp inh: 2%; TRPML1 blocker: -11; ClpP mod: -3.2%; TRPML1 ag: -0.1

Results for COc1ccc(Oc2ncc3nc(-c4ccccc4)c(=O)n(CCC#N)c3n2)cc1 ?
Menin MLL FP FL: -1.6; PINK1 expr mod: -0.6%; Sfp inh: 1%

What do the screens show for `O=C(N/N=C/C=C/c1ccccc1[N+](=O)[O-])c1cc(-c2cccnc2)nc2ccccc12`?
Menin MLL FP FL: 0.6; PINK1 expr mod: 8.8%; TRPV1 potentiator: 27; Sfp inh: 8%; TRPML1 blocker: -9; ClpP mod: -0.3%; TRPML1 ag: 1.6

Results for O=C(COc1ccccc1F)Nc1ccc2nc(SCc3ccccc3)sc2c1 ?
PINK1 expr mod: 7.8%; TRPML1 blocker: 22; ClpP mod: -12%; TRPML1 ag: 2.0

What do the screens show for `CC(C)[C@H](NC(=O)C1CCN(S(=O)(=O)c2ccccc2)CC1)C(=O)NCc1ccncc1`?
PINK1 expr mod: 0.2%; TRPV1 potentiator: 23; Sfp inh: 9%; TRPML1 blocker: 6; ClpP mod: 1.7%; TRPML1 ag: -0.4

How did O=S(=O)(Nc1ccc(-c2ccc3nncn3n2)cc1)c1cc(F)ccc1F do in these assays?
PINK1 expr mod: 1.1%; TRPV1 potentiator: -25; TRPML1 blocker: -5; TRPML1 ag: -0.5

How did Cc1ccc(C(=O)NCc2ccc3c(c2)OCO3)cc1 do in these assays?
Menin MLL FP FL: 0.6; PINK1 expr mod: 1.0%; TRPV1 potentiator: -20; Sfp inh: 18%; ClpP mod: -0.4%

How did COC(=O)Cc1ccc(NC(=S)NN2CCOCC2)cc1 do in these assays?
Menin MLL FP FL: 1.8; PINK1 expr mod: -1.5%; TRPV1 potentiator: -4; Sfp inh: 3%; TRPML1 blocker: -2; ClpP mod: -0.9%; TRPML1 ag: 0.3

What do the screens show for `CC(C)c1ccccc1NC(=O)COC(=O)/C=C/c1cccc([N+](=O)[O-])c1`?
Menin MLL FP FL: 4.1; PINK1 expr mod: 5.9%; TRPV1 potentiator: 8; Sfp inh: -2%; TRPML1 blocker: -8; ClpP mod: 1.2%; TRPML1 ag: 5.4

What do the screens show for `Cc1nnsc1C(=O)NNC(=O)c1cccc2ccccc12`?
Menin MLL FP FL: 0.6; PINK1 expr mod: 0.8%; TRPV1 potentiator: -5; Sfp inh: 4%; TRPML1 blocker: 27; TRPML1 ag: 2.6

Results for CSc1nc(N)nc(C2CC2)n1 ?
Menin MLL FP FL: 5.0; PINK1 expr mod: -0.3%; TRPV1 potentiator: 0; Sfp inh: 10%; TRPML1 blocker: 6; TRPML1 ag: -0.4

What do the screens show for `O=C1CSC(c2ccc(Cl)cc2)N1C1CCCCC1` (stereo not drawn)?
Menin MLL FP FL: -0.1; PINK1 expr mod: 3.4%; TRPV1 potentiator: 7; Sfp inh: 9%; TRPML1 blocker: -14; ClpP mod: -3.5%; TRPML1 ag: -0.6

Results for CCC1SC(CC)C(=O)N(CC(=O)Nc2ccc3c(c2)OCO3)C1=O (stereo not drawn) ?
Menin MLL FP FL: 6.5; PINK1 expr mod: 0.1%; TRPV1 potentiator: -11; Sfp inh: -7%; TRPML1 blocker: 2; ClpP mod: -1.4%; TRPML1 ag: -0.9

Results for O=C(Nc1cccc(S(=O)(=O)N2CCCCC2)c1)C1CC(=O)N(c2ccc3c(c2)OCCO3)C1 (stereo not drawn) ?
PINK1 expr mod: 0.6%; TRPV1 potentiator: 19; Sfp inh: 4%; TRPML1 blocker: 20; ClpP mod: -1.0%; TRPML1 ag: 0.0

How did C#CCOCCOCCOCCNc1nc(N2CCN(C(=O)C(Cc3cc4ccccc4[nH]3)n3cc(C(N)Cc4ccc(O)cc4)nn3)CC2)nc(N2CCN(C(=O)C(CCC(=O)O)n3cc(C(N)C(C)CC)nn3)CC2)n1 (stereo not drawn) do in these assays?
PINK1 expr mod: -0.9%; TRPV1 potentiator: 23; TRPML1 blocker: 18; ClpP mod: -0.6%; TRPML1 ag: -0.7

Results for CCCC(=O)Nc1ccccc1NC(=O)c1ccc(OCC)c(OCC)c1 ?
Menin MLL FP FL: 0.0; PINK1 expr mod: 0.3%; TRPV1 potentiator: -2; Sfp inh: 15%; TRPML1 blocker: 1; TRPML1 ag: 1.0

Results for CC(OC(=O)c1c2c(nc3ccccc13)/C(=C\c1ccc3c(c1)OCO3)CCC2)C(=O)Nc1ccc(S(N)(=O)=O)cc1 (stereo not drawn) ?
Menin MLL FP FL: inconclusive; PINK1 expr mod: -0.9%; TRPV1 potentiator: -24; Sfp inh: 12%; TRPML1 blocker: 1; ClpP mod: -2.6%; TRPML1 ag: inconclusive

What do the screens show for `CN(C(=O)CSc1nnc2[nH]c(=O)cc(-c3ccccc3)n12)c1ccccc1`?
PINK1 expr mod: 11%; TRPML1 blocker: 23; ClpP mod: 4.1%; TRPML1 ag: 2.1

Results for CN(C)c1cccc(C(=O)NC2CCCCCC2)c1 ?
Menin MLL FP FL: 5.3; PINK1 expr mod: 0.1%; TRPV1 potentiator: -23; Sfp inh: inconclusive; TRPML1 blocker: -2; ClpP mod: -7.9%; TRPML1 ag: 0.1

Results for CC1(C)CC(=O)C(C2=NC(C)(C)Cc3ccccc32)=C(O)C1 ?
Menin MLL FP FL: 1.3; PINK1 expr mod: 4.3%; TRPV1 potentiator: -13; Sfp inh: -7%; TRPML1 blocker: 6; ClpP mod: -0.8%; TRPML1 ag: -0.6

How did COc1cc2nc(COc3ccc(C#N)cc3)n(CC#N)c(=O)c2cc1OC do in these assays?
Menin MLL FP FL: 4.2; PINK1 expr mod: 0.5%; TRPV1 potentiator: -9; Sfp inh: 0%; TRPML1 blocker: 3; ClpP mod: 0.3%; TRPML1 ag: -0.7

Results for CC1CCCN(C(=O)C2CCN(Cc3ccc4c(c3)OCO4)CC2)C1 (stereo not drawn) ?
Menin MLL FP FL: -2.2; PINK1 expr mod: -1.2%; TRPV1 potentiator: -6; Sfp inh: 6%; TRPML1 blocker: -8; TRPML1 ag: -0.7

What do the screens show for `CC1(C)CC(NCc2ccc3c(c2)OCO3)CCO1` (stereo not drawn)?
Menin MLL FP FL: 6.0; PINK1 expr mod: 0.2%; TRPV1 potentiator: -5; Sfp inh: 29%; TRPML1 blocker: 20; ClpP mod: -3.5%; TRPML1 ag: -0.6

How did C=CCn1c(C)c(C(C)=O)c(SC)nc1=S do in these assays?
Menin MLL FP FL: -6.0; PINK1 expr mod: -2.1%; TRPV1 potentiator: 19; Sfp inh: 5%; TRPML1 blocker: 1; ClpP mod: 0.6%; TRPML1 ag: -0.7

How did COc1ccc(OCC(=O)O/N=C(\N)c2ccc(OC)c(OC)c2)cc1 do in these assays?
Menin MLL FP FL: 4.8; PINK1 expr mod: 0.0%; TRPV1 potentiator: 17; Sfp inh: -5%; TRPML1 blocker: 2; ClpP mod: -0.5%; TRPML1 ag: 0.7

Results for COC(=O)c1cccc(-c2ccc(/C=N/N3C(=O)C4C5C=CC(C6CC56)C4C3=O)o2)c1 (stereo not drawn) ?
Menin MLL FP FL: -1.1; PINK1 expr mod: 1.1%; TRPV1 potentiator: 3; Sfp inh: 1%; TRPML1 blocker: 1; TRPML1 ag: 0.8

How did CN(C)C(CNC(=O)c1ccc(S(=O)(=O)Nc2ccccc2F)cc1)c1ccccc1 (stereo not drawn) do in these assays?
PINK1 expr mod: -0.3%; TRPV1 potentiator: 11; Sfp inh: 12%; TRPML1 blocker: 5; ClpP mod: 1.2%; TRPML1 ag: 2.0

Results for O=C(NCc1ccccc1)c1cc(=O)c2ccccc2o1 ?
Menin MLL FP FL: -2.2; PINK1 expr mod: -0.3%; TRPV1 potentiator: -1; Sfp inh: 2%; TRPML1 blocker: 15; ClpP mod: -1.4%; TRPML1 ag: 2.5

How did CCCCC(=O)NC(c1cccs1)c1cc(Cl)c2cccnc2c1O (stereo not drawn) do in these assays?
Menin MLL FP FL: -7.3; PINK1 expr mod: -1.2%; TRPV1 potentiator: -1; Sfp inh: 3%; TRPML1 blocker: 39; ClpP mod: 1.1%; TRPML1 ag: 1.5

How did COc1ccc(-n2c(CNC(=O)COc3ccc(Cl)cc3Cl)n[nH]c2=S)cc1 do in these assays?
Menin MLL FP FL: -0.1; PINK1 expr mod: 3.1%; TRPV1 potentiator: -10; Sfp inh: 1%; TRPML1 blocker: -7; ClpP mod: -0.7%; TRPML1 ag: 0.5
